CSC inhib = cancer stem cell inhibition; cancer stem cell-like cells viability, luminescence; inhibition, % at 7.5 µM; 1.1% of 300,000 active; AID 2717;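 active = mean at 75% or more and at least half the replicates too; inconclusive = mean and replicates disagree; tested in HMLE shEcad cells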;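 note: 0% = median of negative and 100% = median of positive control wells; the first replicate is given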
PABP polyA inh = PABP-poly(A) binding inhibition; P11940; PABP-poly(A) RNA binding, fluorescence polarization; inhibition, % at 35 µM; 1% of 290,000 active; AID 2014;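 active = 50% or more with normal probe brightness, or confirmed in later tests; inconclusive = above 50% with abnormal brightness, or retests that disagree; inactive = below 50% or failed in later tests; about a fifth of its hits are not listed in these tables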;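 note: calls also rest on retests at 20 µM and on dose response follow-up; controls were probe without protein and protein plus probe with vehicle; some compounds called inactive have numbers as strong as hits; many hits fall short of the cut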
Yeast UUG start = alters start codon recognition fidelity in yeast. activity score, % at 18.7 µM. S. cerevisiae UUG-firefly luciferase reporter, luminescence/redox ratio. 0.13% of 350,000 active;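 active = replicate mean at a twofold rise or more, about +100% in these data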;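 note: firefly luciferase made from a UUG start codon reports start codon fidelity; reporter light over untreated wells divided by growth signal over untreated wells; some hits fall short of that in this replicate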
Env fusion inh = blocks HIV Env-driven cell-cell fusion. HeLa-JRFL Env/CEM21 cell fusion, luciferase. inhibition, % at 12.3 µM. 1.1% of 360,000 active;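 active = mean replicate inhibition score of at least 50 and every replicate individually at or above 50; inconclusive = only one of the two criteria met; inactive = mean below 50 and not all replicates reaching 50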;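 note: 0% = plate neutral controls and 100% = maraviroc near 300 nM; one replicate is shown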
Rce1 inhib = yeast Ras-converting enzyme inhibition; 0.27% of 290,000 active; calls only; yeast membranes, quenched prenylated peptide cleavage fluorescence;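 active = fall in fluorescence gain of 50% or more versus controls, with final raw signal at or below 3038400; inconclusive = same 50% fall but final raw signal above 3038400; inactive = fall in fluorescence gain under 50%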;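 note: plate controls were neutral control wells for no effect and wells lacking membranes for full effect; tested at 10 µM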
Target sequence (Q03530 whole entry, looked up): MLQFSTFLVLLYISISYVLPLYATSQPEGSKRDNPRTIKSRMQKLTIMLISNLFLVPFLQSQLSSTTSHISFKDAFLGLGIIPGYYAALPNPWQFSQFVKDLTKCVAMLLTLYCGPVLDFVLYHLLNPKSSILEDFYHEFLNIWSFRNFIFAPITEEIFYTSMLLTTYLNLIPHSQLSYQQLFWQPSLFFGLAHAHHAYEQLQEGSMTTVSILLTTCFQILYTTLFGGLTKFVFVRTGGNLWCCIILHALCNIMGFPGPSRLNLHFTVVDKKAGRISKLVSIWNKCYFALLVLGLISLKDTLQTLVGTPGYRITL
eIF4H inh = inhibitors of RNA binding by human eIF4H | Q15056 | eIF4H fluorescence polarization binding assay | inhibition, % at 35 µM | 0.94% of 290,000 active | AID 2012;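 active = 50% or more with normal probe brightness, or confirmed in later tests; inconclusive = above 50% with abnormal brightness, or retests that disagree; inactive = below 50% or failed in later tests; about a fifth of its hits are not listed in these tables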;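 note: calls also rest on retests at 20 µM and on dose response follow-up; 0% = protein and probe with vehicle and 100% = probe without protein; strong numbers were not always called active; many hits fall short of the cut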
MT1-MMP act inh = inhibitors of human MT1-MMP activation. GFP/RFP ratio change, % at 20 µM. HT1080 RFP-PRO-GFP cells, GFP/RFP ratio fluorescence, overnight; percent of plate control window, DMSO zero. P50281. AID 651647. 0.061% of 360,000 active;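 active = GFP/RFP ratio change of at least 30% with cell ATP level not reduced by more than half and red fluorescence within 50% of control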; note: strong numbers were not always called active
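Assay system: HT1080 cells carrying an RFP-PRO-GFP reporter | Dosing: Single dose of 20 µM compound, 1% DMSO final | Incubation: Cells overnight before dosing, compound overnight, 37 °C, 5% CO2 | Evaluation: GFP/RFP fluorescence ratio | Control set: DMSO and RFP-L50D-GFP cell wells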
eIF4H inh retest = recorded beside eIF4H inh, whose call it bears; inhibition, %; compound at 20 µM; confirmation average;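 mean of two retest wells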
PABP polyA inh retest = further read-out of PABP polyA inh, marked with its call; inhibition, %; compound at 20 µM; confirmation repeats;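 mean of two retest wells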
MT1-MMP act inh RFP = further read-out of MT1-MMP act inh, marked with its call; RFP signal change, %; measured here: RFP expression control read;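 0 = vehicle wells; hits needed this value within 50% of zero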
Starred values were filed as active, the others as inactive; i = inactive; ? = inconclusive; nt = not tested or not shown. Not all compounds are listed; rates above refer to the full screens.

SMILES	CSC inhib	PABP polyA inh	Yeast UUG start	Env fusion inh	Rce1 inhib	eIF4H inh	MT1-MMP act inh	MT1-MMP act inh RFP	others
C=CCNc1nc(-c2sc(NC(=O)CC)nc2C)cs1	-6	-3	14	-228	i	0	-8	3
CCOC(=O)C1(CC2CCCCO2)CCN(C(=O)Nc2ccccc2CC)CC1 (stereo not drawn)	-5	3	nt	-3	i	2	-9	-3
CCOc1ccc2nc(Nc3nc4ccc(NC(C)=O)cc4s3)sc2c1	?	10	nt	-9	i	11	1	-7
CCCCN1C(=O)c2ccc(C(=O)Nc3ccc(S(=O)(=O)N(C)C)cc3)cc2C1=O	-11	-1	nt	17	i	-4	-1	-10
Cc1ccccc1-c1nc(S(=O)(=O)c2ccc(Cl)cc2)c(NCCN2CCOCC2)o1	nt	-10	nt	19	i	-4	-11	-8
COc1cc(OC)c(C2CC(=O)N3CN(c4ccccc4C)CSC3=C2C#N)cc1OC (stereo not drawn)	nt	-15	nt	-17	i	26	nt	nt
CCn1cnc2cc(NCc3ccccc3Cl)ccc21	-4	4	-19	-15	i	-1	1	-2
CC(=O)Nc1cccc(NC(=O)Nc2ccc(C)c(Cl)c2)c1	10	1	nt	-19	i	-8	1	-1
Cc1cccc(-n2nc3c(c2NC(=O)c2ccc4c(c2)OCO4)CS(=O)(=O)C3)c1C	0	1	-19	-4	i	-8	-3	1
CCn1c(SC(C)C(=O)N2CCOCC2)nc2sc(C)c(C)c2c1=O (stereo not drawn)	-21	nt	-4	-36	i	nt	2	4
O=C1CCCC2=C1C(c1cccs1)Nc1ccc3ncccc3c12 (stereo not drawn)	6	18	-11	28	i	-7	1	1
Cc1cccc(/C=N/NC(=O)CN2CCCCCCC2)c1	-1	0	-7	-15	i	-3	3	-2
COc1ccc(-n2nc(C(=O)NCc3ccco3)c3ccccc3c2=O)cc1	10	1	-8	-2	i	-10	1	-2
O=C(Nc1c(Cl)cc(Cl)cc1C(=O)NCC1CCCO1)c1ccco1 (stereo not drawn)	-4	11	1	nt	i	-1	2	11
NC(=O)c1c(NC(=O)C2c3ccccc3Oc3ccccc32)sc2c1CCCCC2	7	8	-15	-30	i	44	-48	1
CC(NC(=O)CN1C(=O)NC2(CCCC2)C1=O)c1ccc(Cl)cc1Cl (stereo not drawn)	-12	nt	nt	-2	nt	nt	-3	0
COc1cc(C2C(C#N)=C(N)Oc3cc(C)n(CCN4CCOCC4)c(=O)c32)cc(OC)c1OC (stereo not drawn)	-3	3	nt	nt	i	-2	3	1
CCOC(=O)c1cc(-c2ccco2)nc2c1c(C)nn2-c1cccc(Cl)c1	1	6	-16	10	i	22	8	4
N#Cc1ccsc1NC(=O)CN1CCN(S(=O)(=O)c2ccccc2C(F)(F)F)CC1	-10	21	nt	-4	i	22	-2	-1
Cc1ccc(NC(=O)CSc2ncccn2)cc1S(=O)(=O)N1CCOCC1	-22	nt	-11	nt	nt	nt	-2	1

Of the compounds above, 3 contain a cyano group:
SMILES	CSC inhib	PABP polyA inh	Yeast UUG start	Env fusion inh	Rce1 inhib	eIF4H inh	MT1-MMP act inh	MT1-MMP act inh RFP	others
COc1cc(OC)c(C2CC(=O)N3CN(c4ccccc4C)CSC3=C2C#N)cc1OC (stereo not drawn)	nt	-15	nt	-17	i	26	nt	nt
COc1cc(C2C(C#N)=C(N)Oc3cc(C)n(CCN4CCOCC4)c(=O)c32)cc(OC)c1OC (stereo not drawn)	-3	3	nt	nt	i	-2	3	1
N#Cc1ccsc1NC(=O)CN1CCN(S(=O)(=O)c2ccccc2C(F)(F)F)CC1	-10	21	nt	-4	i	22	-2	-1

Other entries follow:
SMILES	CSC inhib	PABP polyA inh	Yeast UUG start	Env fusion inh	Rce1 inhib	eIF4H inh	MT1-MMP act inh	MT1-MMP act inh RFP	others
Cc1cccc(-n2c(=S)[nH]c3nc4c(cc3c2=O)COC(C)(C)C4)c1	12	5	-12	18	i	-5	-1	-5
Cc1cccc2cc(CN(CCN(C)C)C(=S)NCc3ccco3)c(=O)[nH]c12	-14	-2	nt	-5	i	8	2	7
O=C(Nc1ccc([N+](=O)[O-])cc1)/C(=C/c1cccc([N+](=O)[O-])c1)NC(=O)C1CCCCC1	-8	-6	-9	-7	i	3	3	-3
O=C(CCc1nc2ccccc2s1)OCC(=O)N1CCN(C(=O)c2ccco2)CC1	-4	6	-3	-83	i	2	-7	-2
COCCCNC(=S)N1CCN(c2nc(-c3ccccc3)cs2)CC1	-2	6	-1	19	i	-4	11	-9
O=C(NCCCN1CCN(Cc2ccccc2Cl)CC1)Nc1ccccc1	-9	2	-9	nt	i	-4	7	5
O=C(OCCN=C1NS(=O)(=O)c2ccccc21)c1ccccc1	-8	0	3	-3	i	-5	3	-1
CCC(C)OC(=O)c1cc(C)nc2c(Br)cc(Br)cc12 (stereo not drawn)	-10	1	-11	-147	i	-12	2	0
COc1ccc(C2CC2/C(C)=N/OC(=O)c2ccc(F)cc2)cc1 (stereo not drawn)	-21	13	nt	-2	i	2	1	3
COc1cc(/C=N/n2c(C)n[nH]c2=S)ccc1OCc1ccccc1	-13	1	nt	nt	i	-2	-2	0
CCOC(=O)C1(C)CCCN1C(=O)c1snnc1C (stereo not drawn)	nt	nt	-2	7	nt	nt	2	3
COc1cc2c(cc1NC(=O)COC(=O)[C@@H](NC(=O)c1ccccc1F)C(C)C)oc1ccccc12	18	-9	nt	5	i	-5	1	-2
O=C(N1CCOCC1)N1CCc2ccccc21	-1	-7	-21	14	nt	-6	-1	8
C=CCOC(=O)C1=C(C)N=c2s/c(=C3\C(=O)N(CC(=O)O)c4ccccc43)c(=O)n2C1c1ccc(OC)cc1 (stereo not drawn)	5	28	-34	3	nt	45	15	2
COc1ccccc1C(=O)NC(CCSC)C(=O)NCCCSc1ccccc1 (stereo not drawn)	-18	nt	nt	20	i	nt	-4	-3
C=C(C)Cn1c(N(CCO)Cc2ccccc2)nc2c1c(=O)[nH]c(=O)n2C	nt	0	-22	7	i	-7	-2	4
CNS(=O)(=O)c1cccc(C(=O)OCC(=O)Nc2ccc(OC)cc2[N+](=O)[O-])c1	-4	-2	-11	-4	i	-16	2	4
CCC(C)NC(=O)c1ccc2nc(Cc3ccc(OC)cc3)oc2c1 (stereo not drawn)	-9	10	3	-1	i	-4	0	-4
CC(C)n1c(SCC(=O)N2CCN(C)CC2)nc2c1c(=O)n(C)c(=O)n2C	nt	0	-15	-4	i	0	-2	1
O=C(CCCc1ccccc1)NCCC1=CCCCC1	-4	6	-14	8	i	-2	3	1
CCOCc1nnc(NC(=O)CS(=O)(=O)c2ccc(C)cc2)s1	-11	7	-11	4	i	3	1	2
COc1ccc([N+](=O)[O-])cc1C(=O)C(=O)c1ccccc1	0	-9	-10	10	i	-6	2	1
COc1ccc(Br)cc1CNC(=O)CCCc1cn(C)c2ccccc12	13	2	-2	-1	i	-14	-4	-2
CCCCOc1ccccc1C1NC(=O)NC(C)=C1C(=O)OCCOC (stereo not drawn)	4	nt	-18	nt	i	nt	-1	1
N=c1oc2cc(O)ccc2cc1C(=O)Nc1ccc(F)cc1	15	5	-9	-140	i	20	-15	-17
CCS(=O)(=O)N1Cc2ccccc2CC1C(=O)N1CCN(c2ccccc2)CC1 (stereo not drawn)	-13	5	-3	15	i	35	0	-1
O=C(/C=C/c1ccc(F)cc1)N1CCc2ccccc2C1	-13	nt	-4	-65	nt	nt	-1	-1
Cn1c(=O)[nH]c(=O)c2c1nc(Br)n2CC(O)COc1ccccc1 (stereo not drawn)	-17	6	8	nt	i	7	2	4
Cn1c(SCc2ccc(C#N)cc2)nnc1-c1ccncc1	-15	2	-12	12	i	5	0	-2
CN(C)C(=O)c1ccc(NC(=O)CSc2nc3ccccc3[nH]2)cc1	nt	98	nt	-11	i	-7	6	-4	eIF4H inh retest=-11;PABP polyA inh retest=11
Cc1c2c(nc3nc4ccccc4n13)CCCC2=O	nt	8	nt	nt	i	2	nt	nt
Cc1csc(SCCN2C(=O)c3ccccc3C2=O)n1	0	-4	-5	-151	i	-11	3	3
CCOc1ccc2c(c1)c1nnc(SCC(=O)N3CCC(C)CC3)nc1n2C	nt	0	1	21	i	-7	12	0
COc1cccc2[nH]c3c(N4CCCC(C)C4)ncnc3c12 (stereo not drawn)	-2	-3	nt	nt	i	-2	20	-4
O=C(O)/C=C\C(=O)Nc1ccccc1F	0	?	-10	nt	i	-10	-2	3
S=C(NCc1ccncc1)Nc1ccc(Cl)cc1Cl	8	21	nt	17	i	-2	-3	-4
Cn1c(NCC2CCCCC2)nc2cc(-c3ccsc3)sc2c1=O	nt	nt	4	-2	nt	nt	2	3
CCc1nc2ccc(C(=O)N(C)Cc3ccco3)cn2c1N(CC)Cc1cccc(Br)c1	nt	nt	4	0	nt	nt	-3	-8
COc1cc(/C=C2\SC(=Nc3ccccc3)N(CCc3c[nH]c4ccccc34)C2=O)ccc1OC(C)C(=O)O (stereo not drawn)	41	-2	nt	9	i	15	-4	-9
Cc1cc(C(=O)NNC(=O)c2cccc(N(C)C)c2)c(C)o1	-4	4	-13	nt	i	-2	-1	2
CNC(=O)C(=O)NCC1OCCCN1S(=O)(=O)c1ccc(F)cc1C (stereo not drawn)	6	7	-8	-3	i	4	-2	2
Cc1cc(C(=O)NNc2ccc(F)cc2F)no1	75*	2	-19	-14	i	7	5	6
CS(=O)(=O)c1ccc(-c2nnn(CC(N)=O)n2)cc1	1	8	-11	8	i	-15	-4	1
Cc1cc(N/C=C(\C#N)S(=O)(=O)c2ccccc2Cl)nc(C)n1	-8	3	nt	-4	i	2	-1	1
COCc1cc(=O)[nH]c(/N=C(\N)Nc2ccc(Cl)c(Cl)c2)n1	-22	4	-5	-8	i	-2	3	-4
O=C(Nc1cccc(Cl)c1)C1CCCCC1	-10	nt	-13	-3	nt	nt	11	6
CS(=O)(=O)Nc1cccc(C2=NN(C(=O)c3ccco3)C(c3ccco3)C2)c1 (stereo not drawn)	4	-15	-8	-15	i	-4	-1	-6
COc1ccc(S(=O)(=O)N2CCN(Cc3cc(OC)c(OC)c(OC)c3)CC2)cc1	5	9	-6	-9	i	5	3	2
N#Cc1cnc(Nc2ccc(F)cc2)nc1N	-5	-8	-4	-34	i	-9	-6	-4
S=C(Nc1ccccc1Cl)N1CCCC(c2ccccc2)=N1	84*	3	-8	14	nt	-15	-4	-4
COC(=O)C(C)Oc1ccc(Cl)c(CN2OCC(C)(C)C2=O)c1 (stereo not drawn)	nt	nt	-16	-77	i	nt	0	2
O=C(CSc1c[nH]c2ccccc12)NCC1CCCO1 (stereo not drawn)	7	15	-17	21	i	7	-4	2
O=C(CN1CCN(c2ccccc2O)CC1)Nc1ccc2c(c1)CCC2	-4	87*	nt	8	i	2.2*	-4	-4	eIF4H inh retest=104*;PABP polyA inh retest=51*
CCCC(=O)N1CCCC1(C)C(=O)Nc1ccc(C)c(C)c1 (stereo not drawn)	nt	nt	-4	-14	nt	nt	2	7
CN(CC(=O)Nc1ccccc1C(F)(F)F)C(=O)C1=COCCO1	-9	nt	-18	nt	i	nt	2	6
CCc1ccc(NC(=O)c2ccc(F)c(S(=O)(=O)N(CC)c3ccccc3)c2)cc1	nt	1	-7	33	i	-1	-3	-15
Cc1nn(C)c(C)c1CCC(=O)N1CCCC(C(=O)c2cccc(OC(C)C)c2)C1 (stereo not drawn)	5	0	-8	8	i	-6	-1	-8

Screening data: PubChem, several laboratories
